MgrA DNA FP: S. aureus MgrA activity modulators, primary screen, biochemical, S. aureus Newman, fluorescence polarization. MgrA-DNA binding. inhibition, %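 (about 10 µg/mL by stock and volumes)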. 0.13% of 84,000 active;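 active = above 50% in either of two replicates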;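 also: 0% = protein plus DNA without compound and 100% = DNA alone without protein; higher means less MgrA bound to DNA so lower polarization; one replicate is shown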
S aureus helic: inhibitors of S. aureus replicative helicase, primary screen, biochemical, fluorescence unwinding readout; replicative DNA helicase (DnaC/DnaB), Staphylococcus aureus; purified S. aureus helicase, fluorescence unwinding assay; about half of the hits fall short of the stated cut; inhibition, %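 (tested at about 80 µM)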; 0.05% of 120,000 active; AID 485395, 2010;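 active = both duplicates at 50% or more, or one of them with a favoured structure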;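 also: 0% = mean of negative control wells and 100% = mean of positive control wells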
The depositor's hits bear a star; . = no result given. An excerpt (hit frequency here may not be typical).

S aureus helic | MgrA DNA FP | Structure
10.0 | -2.3 | CS(=O)(=O)Nc1cc(Cl)ccc1Oc1ccccc1
12.0 | -1.1 | O=C(COc1ccc(Cl)cc1Cl)OCC(=O)N1CCCc2ccccc21
8.0 | 5.4 | O=C(NCCn1cnc2cccnc21)Nc1ccccc1-c1ccccc1
7.0 | . | O=C(CSC1CCCC1)c1ccccc1
-16.0 | . | CCN(CC)c1ncnc2c1cnn2-c1ccc(OC)cc1
-3.0 | 0.5 | CCc1c(C)nc2c(C)cccc2c1Cl
8.0 | . | CCC1(CC)OC(c2ccccn2)Nc2ccccc21 (stereo unspecified)
. | 4.7 | CSC(=CC(=O)c1ccccn1)SC
-1.0 | -2.1 | CNC(=S)Nc1ccc(C(N)=O)cc1
1.0 | . | NNC(=O)c1ccc(CSc2nc3ccccc3[nH]2)cc1
0.0 | . | Cn1/c(=N/N=C2\C(=O)Nc3c(Cl)cc(Cl)cc32)sc2ccccc21
9.0 | . | Cc1cc(C)c(C#N)c(SCC(=O)N(Cc2ccccc2)Cc2ccccc2)n1
5.0 | -1.5 | CCCc1ncc(C(O)c2ccccc2OC)n1C (stereo unspecified)
. | -1.1 | COc1cc(C=Nc2ccc(Cl)cc2)ccc1OC(=O)C1CC1
-8.0 | 3.4 | CN(C(=O)CSc1nncc2ccccc12)C1CCCCC1
. | 2.4 | O=S(=O)(c1ccccc1)c1cc(C(F)(F)F)cc(C(F)(F)F)c1
1.0 | . | Cc1cccc(NC(=O)CSc2c[nH]c3ccccc23)c1
-8.0 | . | CC(C#N)OC(=O)c1cc(S(C)(=O)=O)ccc1Cl (stereo unspecified)
24.0 | . | CC(C(=O)O)N1C(=O)c2ccccc2C1=O (stereo unspecified)
4.0 | -1.6 | O=C(c1ccccc1)N1CCC(c2nc3ccccc3[nH]2)CC1
. | 2.5 | O=[N+]([O-])c1cc(Cl)c(N2CCCCC2)cc1N1CCCCC1
-3.0 | . | COc1ccccc1S(=O)(=O)Nc1ccc2nc(C)sc2c1
-24.0 | 1.2 | N#Cc1ccc(C(=O)Oc2ccc3ccccc3c2)cc1
-15.0 | -1.1 | CCCN(CC1CC1)C(=O)c1cc(S(=O)(=O)N(CC)CC)ccc1Cl
12.0 | . | COc1cc2ccccc2cc1C(=O)OCC#N
9.0 | . | CCOC(=O)c1c(C)n(C)c2ccc(OCC(O)CNCc3ccccc3)cc12 (stereo unspecified)
4.0 | -2.5 | COC(=O)CC1=C(C(=O)OC)C(c2ccc(C(=O)OC)cc2)C(C#N)=C(N)O1 (stereo unspecified)
0.0 | 1.5 | COc1ccccc1NC(=O)c1sc2nc(-c3cc4cccc(OC)c4oc3=O)[nH]c(=O)c2c1C
11.0 | . | O=C(O)c1ccc2c(c1)sc1[n+]2CCS(=O)(=O)N1
7.0 | . | Cc1ccc(-c2cn3c(n2)sc2cc(C(=O)NCCN4CCCC4)ccc23)cc1
. | -0.3 | CC(=O)Nc1ccccc1-c1nnc(-c2ccc(C(C)(C)C)cc2)o1
-1.0 | . | CC(NCC(F)(F)F)C1CC1 (stereo unspecified)
-2.0 | . | O=C(COc1cccc2ccccc12)OC1CCS(=O)(=O)C1 (stereo unspecified)
4.0 | -2.1 | CCCC(=O)Nc1ccc(-c2nc3ccccc3s2)cc1
25.0 | . | O=C(Cc1ccc(Cl)c(Cl)c1)Nc1ccc2nc3n(c(=O)c2c1)CCCC3
-14.0 | 2.0 | FC(F)(F)c1cc(-c2ccccc2)nc(NCc2cccnc2)n1
6.0 | . | O=C(NCCCn1ccnc1)Nc1cccc2ccccc12
11.0 | -0.6 | COc1ccc(-c2c(C)oc3c(CN4CCN(C)CC4)c(O)ccc3c2=O)cc1
. | 0.4 | CC(C#N)(Nc1ccccc1)c1cccnc1 (stereo unspecified)
7.0 | . | C=CCn1c(=O)c2ccc(C(=O)NCc3ccc4c(c3)OCO4)cc2n(CC(=O)NCc2ccco2)c1=O

Reformatted as labelled records: entries from further up.
O=C(Cc1ccc(Cl)c(Cl)c1)Nc1ccc2nc3n(c(=O)c2c1)CCCC3
  S aureus helic = 25.0 | MgrA DNA FP = .
FC(F)(F)c1cc(-c2ccccc2)nc(NCc2cccnc2)n1
  S aureus helic = -14.0 | MgrA DNA FP = 2.0

Further structures follow:
S aureus helic | MgrA DNA FP | Structure
. | 13.6 | Cc1ccc(C)n1-c1ccc(C(=O)ON2C(=O)CCC2=O)cc1
7.0 | . | Cc1cc(C(=O)COC(=O)c2cccs2)c(C)n1Cc1cccs1
11.0 | . | Cc1ccc(Oc2ccc3c(c2)C(=O)N(CC(=O)O)C3=O)cc1C
. | -1.7 | Cc1c(C)c(C)c(CSC(=Nc2ccc(C(C)C)cc2)N2CCOCC2)c(C)c1C
2.0 | 0.9 | COC(=O)CCC/C=C1/SCC(NC(=O)c2ccccc2)/C1=N/O (stereo unspecified)
0.0 | -1.6 | COc1ccc(CC(=O)Nc2ncn[nH]2)cc1OC
-2.0 | . | CC(C(=O)OCC(=O)Nc1ccccc1)N1C(=O)c2ccccc2C1=O (stereo unspecified)
-24.0 | . | Clc1ccc(Oc2ccccc2)c(NC2=NCCC2)c1
22.0 | . | Cc1nn2c(-c3ccco3)nnc2c2ccccc12
0.0 | . | Cn1c(CSc2nc3ccccc3s2)n[nH]c1=S
8.0 | . | CCOC(=O)c1sc(N2C(=O)c3oc4ccccc4c(=O)c3C2c2ccc(O)c(OCC)c2)nc1C (stereo unspecified)
3.0 | . | COc1ccc(CNC(=O)c2ccc(Cn3cc(Br)cn3)o2)cc1
-4.0 | . | O=C(Nc1ccc(Nc2nc3c(S(=O)(=O)c4ccc(Br)cc4)nnn3c3ccccc23)cc1)c1ccco1
-13.0 | . | Cc1ccc(-c2nn(C)c(=O)c3ccccc23)cc1S(N)(=O)=O
5.0 | 1.4 | O=C(O)c1ccc(Cl)c(NC(=O)c2ccco2)c1
14.0 | -1.2 | CCn1cc(C(=O)O)c(=O)c2cc(F)c(N3CCN(C(=O)c4ccccc4F)CC3)cc21
-6.0 | . | O=C(Cn1cnc2ccccc2c1=O)N1CCSC1c1ccccc1F (stereo unspecified)
12.0 | . | Cc1cc(C(=O)OCc2nnc(-c3ccccc3)o2)c(C)n1-c1ccccc1
-16.0 | . | Clc1ccc(-c2noc(CNC3CCCCC3)n2)cc1
-10.0 | 3.5 | Cc1nnc(SCC(=O)N(C2CCCCC2)C2CCCCC2)[nH]c1=O
. | -2.4 | COc1ccc(C2C(C(=O)O)c3ccccc3C(=O)N2C2CCN(Cc3ccccc3)CC2)cc1 (stereo unspecified)
-10.0 | -1.3 | Cc1nc2ccccn2c1C(=O)N1CCCC(C)C1 (stereo unspecified)
4.0 | -3.7 | CCN(CC)C(=O)c1cc(-c2ccc(C)cc2)on1
14.0 | . | O=C(COc1ccc(F)cc1)N(Cc1ccccc1)c1ccccn1
. | 2.9 | CCOC(=O)c1c(C)c(=O)oc2c1c(=O)[nH]n2-c1ccccc1
21.0 | . | Cc1c(C(=O)N2CCCC2)oc2ccc3c(c12)C(O)CC(C)(C)O3 (stereo unspecified)
. | 0.0 | CCC(C)c1ccc2oc(-c3ccc(NC(=O)c4ccc(OC)c(OC)c4)cc3)nc2c1 (stereo unspecified)
4.0 | 2.9 | CCC1CCCCN1C(=O)CSc1nc2ccccc2[nH]1 (stereo unspecified)
-5.0 | . | CCCCNC(=O)c1ccc2c(c1)NC(=O)C(CS(=O)(=O)Cc1ccccc1C)N2 (stereo unspecified)
-9.0 | . | O=c1ccc(-c2ccc(S(=O)(=O)N3CCc4ccccc43)o2)n[nH]1
1.0 | -0.6 | CNC(=O)CSc1nc(-c2ccccc2)c(-c2ccccc2)[nH]1
0.0 | . | COC(=O)c1sc(N)c(C(=O)OC)c1COC(=O)[C@H](C)N=C1NS(=O)(=O)c2ccccc21
-3.0 | -2.5 | CCS(=O)(=O)Nc1ccc(C(=O)N2CCN(Cc3ccc4c(c3)OCO4)CC2)cc1
-9.0 | . | NC(=O)C12CC3CC(CC(Cl)(C3)C1)C2
8.0 | . | Cc1csc2sc(/C=C(\C#N)S(=O)(=O)c3cccs3)c(C)c12
-18.0 | . | O=C1CCN(C(=O)Cn2c(C(F)(F)F)nc3ccccc32)CC1
-13.0 | . | O=C(c1cccc(C(F)(F)F)c1)N(c1ccccn1)C1CCCCC1
-16.0 | . | Cc1onc(-c2c(Cl)cccc2Cl)c1/C(N)=N/OC(=O)C(C)(C)C
. | -0.8 | N#Cc1ccccc1N1CCCCC1
6.0 | -1.6 | Cc1ccc(NCCCCO)c(C)c1
6.0 | . | Nc1nnc2sc(SCC(=O)O)nn2c1=O
0.0 | -1.8 | O=C(C(c1ccccc1)c1ccccc1)N1CCNCC1
. | 0.3 | O=C(CC12CC3CC(CC(C3)C1)C2)Nc1nccs1
-24.0 | . | CC1CC(=O)Nc2ccccc2N1C(=O)Nc1ccccc1 (stereo unspecified)
12.0 | -0.5 | Cc1cccc(C)c1NC(=O)CCCN1CC(C)OC(C)C1 (stereo unspecified)
2.0 | . | CCn1c(-c2c(Cl)c(C)nn2C)n[nH]c1=S
4.0 | 4.3 | Cc1cccc(NC(=O)Cn2c(=O)n(-c3ccc(F)cc3)c(=O)c3sccc32)c1
2.0 | 10.2 | COc1ccc(Nc2nc(-c3ccc(OC)cc3)no2)cc1
-171.0 | . | Cc1cccc(N2C(=O)/C(=C/c3ccc(O)c(O)c3)SC2=S)c1C
4.0 | -2.5 | NC(=O)c1cc2ccccc2nc1C(N)=O

As a short view, 16 of the compounds above:
S aureus helic | MgrA DNA FP | Structure
8.0 | . | Cc1csc2sc(/C=C(\C#N)S(=O)(=O)c3cccs3)c(C)c12
-18.0 | . | O=C1CCN(C(=O)Cn2c(C(F)(F)F)nc3ccccc32)CC1
-13.0 | . | O=C(c1cccc(C(F)(F)F)c1)N(c1ccccn1)C1CCCCC1
-16.0 | . | Cc1onc(-c2c(Cl)cccc2Cl)c1/C(N)=N/OC(=O)C(C)(C)C
. | -0.8 | N#Cc1ccccc1N1CCCCC1
6.0 | -1.6 | Cc1ccc(NCCCCO)c(C)c1
6.0 | . | Nc1nnc2sc(SCC(=O)O)nn2c1=O
0.0 | -1.8 | O=C(C(c1ccccc1)c1ccccc1)N1CCNCC1
. | 0.3 | O=C(CC12CC3CC(CC(C3)C1)C2)Nc1nccs1
-24.0 | . | CC1CC(=O)Nc2ccccc2N1C(=O)Nc1ccccc1 (stereo unspecified)
12.0 | -0.5 | Cc1cccc(C)c1NC(=O)CCCN1CC(C)OC(C)C1 (stereo unspecified)
2.0 | . | CCn1c(-c2c(Cl)c(C)nn2C)n[nH]c1=S
4.0 | 4.3 | Cc1cccc(NC(=O)Cn2c(=O)n(-c3ccc(F)cc3)c(=O)c3sccc32)c1
2.0 | 10.2 | COc1ccc(Nc2nc(-c3ccc(OC)cc3)no2)cc1
-171.0 | . | Cc1cccc(N2C(=O)/C(=C/c3ccc(O)c(O)c3)SC2=S)c1C
4.0 | -2.5 | NC(=O)c1cc2ccccc2nc1C(N)=O

(listing goes on)
S aureus helic | MgrA DNA FP | Structure
-18.0 | -2.1 | CC(OC(=O)c1ccc(O)cc1)C(=O)Nc1cc(Cl)cc(Cl)c1 (stereo unspecified)
9.0 | -1.7 | O=C(COC(=O)c1cccnc1Cl)c1cccc(Cl)c1
18.0 | . | Cc1ccc(C(=O)OC(C)C(=O)Nc2ccc(S(N)(=O)=O)cc2)s1 (stereo unspecified)
8.0 | -1.4 | O=C(OCC1CCCN2CCCCC12)c1cc2nc(-c3ccco3)cc(C(F)(F)F)n2n1 (stereo unspecified)
-9.0 | 2.8 | COc1ccc(CNc2ccc(C)c(C)c2)c(OC)c1OC
13.0 | -3.5 | Cc1ccc(S(=O)(=O)NC(=O)Nc2cccc(C(F)(F)F)c2)cc1
5.0 | 0.0 | O=C1CCCC2=C1C(c1ccc(Br)cc1)n1nc(-c3ccco3)nc1N2 (stereo unspecified)
12.0 | . | O=C(Cc1n[nH]c(=O)c2ccccc12)OCc1cc(=O)n2ccsc2n1
6.0 | -1.6 | O=C(NCO)c1ccccc1
. | 10.9 | CN(C)/C=N/c1nc2c(s1)CCc1ccccc1-2
. | -0.3 | COC(=O)CN(c1nc(C)c(Cl)c(OC)n1)S(=O)(=O)c1ccc(C)cc1
. | 1.1 | O=c1oc(-c2ccco2)nc2scc(-c3cccs3)c12
11.0 | -1.5 | O=C(CCSc1ccccc1Cl)NC1CCCCCC1
3.0 | -1.0 | CC1SC(c2ccc(Br)cc2)N(c2ccccc2)C1=O (stereo unspecified)
9.0 | . | CCc1nnc2c(NCCCN3CCN(c4ccccc4)CC3)nc3ccccc3n12
12.0 | -1.6 | CCCn1c(SCC(=O)c2ccccc2)nc2ccccc21
19.0 | -1.6 | CCOC(=O)c1ccccc1NC(=O)c1ccccc1N(C)S(C)(=O)=O
5.0 | . | CCOCCCn1c(Sc2ncnc3c2oc2ccccc23)nc2ccccc2c1=O
-5.0 | . | COC(=O)N/N=C(\C)c1ccc(C)c(C)c1
-1.0 | 3.4 | NC(=O)N1CCc2ccccc21
2.0 | 0.0 | CCc1ccc2c(c1)c1nnc(SCC(=O)NC3CCCCC3C)nc1n2C (stereo unspecified)
. | 0.7 | Cc1nnc(-c2cccc(C(F)(F)F)c2)[nH]c1=O
5.0 | . | Cc1cccc(N2CCN(C(=O)C3C4C=CC(O4)C3C(=O)O)CC2)c1C (stereo unspecified)
14.0 | -0.3 | CC1(C)NC(=O)N(CC(O)CNC23CC4CC(CC(C4)C2)C3)C1=O (stereo unspecified)
3.0 | . | O=C(Nc1nc2c(s1)CCCC2)c1ccccc1
-45.0 | . | O=C(O)/C=C/c1ccc(/C=C/C(=O)O)cc1
-10.0 | . | COc1cc(C(=O)N2CCN(Cc3ccccc3)CC2)cc(CN2C(=O)c3ccccc3C2=O)c1OC
-4.0 | 4.0 | NC(=O)c1ccc(N=Cc2ccc[nH]2)cc1
6.0 | -0.7 | Cc1ccccc1NC(=S)NN1CCN(C)CC1
. | -0.4 | COc1ccc(OC)c(C2NC(=O)NC(C)=C2C(=O)OCC(F)(F)C(F)(F)F)c1 (stereo unspecified)
-9.0 | . | N#CC1(NC(=O)Cn2cc(Br)ccc2=O)CCCC1
-21.0 | . | O=C(CCSc1nc(-c2ccco2)cc(C(F)(F)F)n1)NCCN1CCOCC1

Compound activity as filed in PubChem.
